# Assay outcomes deposited in PubChem by National Center for Advancing Translational Sciences (NCATS).
# Menin-MLL FL inh: qHTS Assay for Inhibitors Targeting the Menin-MLL Interaction in MLL Related Leukemias: Competition With Fluorescein Labeled MLL-derived Peptide; FP activity change, % at 61.4 µM; Fluorescence polarization, fluorescein-MLL peptide displacement from menin; 290,000 tested, under 10 active; AID 1766, 2009; inconclusive = falling polarisation curve, or a change in total fluorescence; inactive = total fluorescence flat and polarisation flat or rising; no compound was filed as active; the % refers to the polarisation; negative = inhibition;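 also: % of control where 0% means no effect; inhibitors lower the polarisation; unlabelled MLL peptide was the positive control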
# TRPV1 PAM: HTS Assay for Compounds that Act as Potentiators of the Vanilloid Receptor 1; Transient receptor potential cation channel subfamily V member 1 (Homo sapiens), Q8NER1; TRPV1-expressing cells, Fluo-8 calcium influx, capsaicin EC20 potentiation; host cell line not named in the record; control for the full effect not named in the record; potentiation, % at 8.33 µM; hit rate 0.02% among 320,000; AID 540277, 2011; active means potentiation above 80%; inconclusive means 30% to 80%; inactive means below 30%; also: 0% is about no effect
#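 Cells expressing TRPV1 were dye-loaded with Fluo-8 and read kinetically: 10 s baseline, 3 min after compound (agonist portion), then 2 min after EC20 capsaicin (allosteric enhancer portion). Calcium-bound dye fluorescence at 480/520 nm.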
# gsp ag: qHTS for Agonist of gsp, the Etiologic Mutation Responsible for Fibrous Dysplasia/McCune-Albright Syndrome: qHTS | hit rate 0.13% among 340,000 | Potency, µM (series often up to 76.9 µM), without a hit: at the highest dose activation (cAMP increase), usual class: activators | gsp mutant cells, cAMP HTRF, 30 min; control for the full effect not named in the record | AID 624287, 2012; active = well fitted activation curve with a large enough effect; inconclusive = small, poorly fitted or top-dose-only effect, or another doubt; inactive = no such curve, though single readings can be large or run the other way; cell line not stated here;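 also: phosphodiesterase inhibitor Ro 20-1724 added with compounds to block cAMP breakdown; potency is read from the fitted curve at half-maximal effect; nearly all actives have a fitted effect of over 60% in size; about a fifth of the inactives were tested at one dose only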
#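 Cells in DMEM/10% FBS with G418 were pretreated with compounds in DMSO plus […] (300 uM stock) for 30 min at 37C. cAMP was measured by HTRF (cAMP-d2 plus anti-cAMP antibody-K) after 30 min at room temperature.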
# gsp antagonist: qHTS for Antagonists of gsp, the Etiologic Mutation Responsible for Fibrous Dysplasia/McCune-Albright Syndrome: qHTS; gsp-mutant cells, cAMP HTRF, 30 min; control for the full effect not named in the record; Potency, µM (top dose mostly 76.9 µM), inactives show at the top dose activity change, negative = inhibition, actives largely listed as inhibitors; hit rate 0.4% among 340,000; active = falling curve of any shape with a large fitted effect; inconclusive = falling curve, mostly with a smaller effect; inactive = flat or rising curve; cell line not stated here;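 also: intracellular cAMP measured with PDE inhibitor Ro 20-1724 present during compound exposure; potency is read from the fitted curve at half-maximal effect; % is scaled to controls: 0 for no effect and ±100 for the full control effect; nearly all actives have a fitted effect of over 65% in size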
#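 Measurement of cellular cAMP by homogeneous time-resolved fluorescence following a 30 min compound exposure at 37C. The PDE inhibitor […] was present throughout; the assay buffer was DPBS with 0.05% BSA and 0.005% Tween 20.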
# ClpP mod: qHTS Assay for Activators of ClpP | ATP-dependent Clp protease proteolytic subunit (Bacillus subtilis (strain 168)), P80244 | purified B. subtilis ClpP, FRET peptide cleavage, 20 min | Potency, µM (top dose mostly 57.5 µM), for the others: at the highest dose activity change, negative = active | hit rate 1.9% among 340,000 | AID 651965, 2013; active = well fitted falling curve with a large enough effect; inconclusive = small, poorly fitted or top-dose-only effect; inactive = no such curve, though single readings can be large or run the other way; also: potency is read from the fitted curve at half-maximal effect; the source files actives as falling curves though it sought activators and does not explain the sign; nearly all actives have a fitted effect of over 65% in size; many hits overshoot -100%
# Target sequence (P80244 whole entry, looked up): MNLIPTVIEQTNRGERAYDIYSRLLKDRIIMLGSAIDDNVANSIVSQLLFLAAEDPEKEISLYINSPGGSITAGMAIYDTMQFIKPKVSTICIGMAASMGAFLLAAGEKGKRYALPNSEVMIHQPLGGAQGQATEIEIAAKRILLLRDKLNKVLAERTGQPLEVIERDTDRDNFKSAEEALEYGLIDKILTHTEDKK
#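 FRET quenching reversal measured ClpP activation: 10 microg/mL B. subtilis ClpP at pH 8 with the FRET-FV decapeptide, read at 430 nm after 320 nm excitation. The 20-min minus 0-min signal was scaled between DMSO/no-enzyme wells and ADEP (5.8 microM final).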
# Sfp PPTase inh: qHTS Assay for Inhibitors of Bacillus subtilis Sfp phosphopantetheinyl transferase (PPTase). 4'-phosphopantetheinyl transferase ffp (Bacillus subtilis), Q9F4F7. Biochemical Sfp PPTase activity, qHTS. Potency, µM, inactives show max response, negative = inhibition, hits mostly inhibitors. hit rate 3.5% among 310,000; active = well fitted inhibition curve with a large enough effect; inconclusive = small, poorly fitted or top-dose-only effect, or another doubt; inactive = no such curve, though single readings can be large or run the other way;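 also: the enzyme is Sfp with the accession as filed and its product quenches rhodamine fluorescence; potency is read from the fitted curve at half-maximal effect; 0% = enzyme reaction without inhibitor and -100% = no enzyme wells; top concentration of the series not given in the record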
#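 Fluorescence-quenching assay with 15 nM Sfp, 5 uM rhodamine-CoA and 12.5 uM BHQ-2-labelled ybbR peptide in pH 7.6 Hepes/MgCl2 buffer. Enzyme was pre-incubated with compound for 15 min at room temperature. Rate was taken from the 30-min fluorescence change (525/598 nm).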
# D2 potentiator: Beta-Arrestin HTS for Positive Allosteric Modulators of the Human D2 Dopamine Receptor: Potentiators | D(2) dopamine receptor (Homo sapiens), P14416 | DiscoveRx D2 beta-arrestin cells, luminescence, 90 min; 100% = 57 uM dopamine signal | potentiation, % (concentration not given with the values) | hit rate 0.23% among 360,000; active = potentiation of 50% or more; inconclusive = 30% to 50%; inactive = 30% or less;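 also: compound concentration not given in the record; tested on top of an EC20 dose of dopamine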
# Target sequence (P14416 whole entry, looked up): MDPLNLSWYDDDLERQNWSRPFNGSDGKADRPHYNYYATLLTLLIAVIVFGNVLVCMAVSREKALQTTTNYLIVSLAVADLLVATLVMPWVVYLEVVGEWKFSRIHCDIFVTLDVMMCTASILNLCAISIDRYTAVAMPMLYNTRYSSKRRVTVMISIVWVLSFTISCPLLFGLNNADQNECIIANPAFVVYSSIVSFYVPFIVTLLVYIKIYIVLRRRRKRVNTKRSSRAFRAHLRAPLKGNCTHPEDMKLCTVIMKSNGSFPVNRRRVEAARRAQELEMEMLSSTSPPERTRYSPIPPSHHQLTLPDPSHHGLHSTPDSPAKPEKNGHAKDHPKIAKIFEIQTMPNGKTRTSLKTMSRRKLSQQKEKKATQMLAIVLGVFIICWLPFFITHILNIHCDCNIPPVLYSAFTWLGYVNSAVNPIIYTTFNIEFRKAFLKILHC
#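 PathHunter beta-arrestin assay in DiscoveRx D2 cells. Compounds were added with an EC20 of dopamine (50 nM final) for 90 min at 37 deg C. Luminescence was read 1 h after detection reagent, with 57 uM dopamine as the EC100 control.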
# * marks the source's active call; other numbers are inactive results; u = inconclusive; x = not tested or not shown; [ ] = dose if it differs, or a comment.
SMILES,Menin-MLL FL inh,TRPV1 PAM,gsp ag,gsp antagonist,ClpP mod,Sfp PPTase inh,D2 potentiator
Cc1ccc(N(CC(=O)N2CCCCCC2)S(=O)(=O)c2ccccc2)cc1,0.0,0,4%[15.4 µM],0%,-2.5%,3%,-8
COc1ccc(F)cc1CN1CCN(C(=O)CCC(=O)Nc2nnc(CC(C)C)s2)CC1,-0.4,29,-3%,-5%,-4.0%,13%,-22
CN(C)c1cccc(C(=O)OCC(=O)c2ccc[nH]2)c1,x,-10,-10%[15.4 µM],3%,x,x,-4
COC(=O)[C@]1(C)N[C@H](CN(C)S(=O)(=O)c2ccc(F)cc2)[C@@H]2C(=O)N(C)C(=O)[C@@H]21,x,x,x,8%,-2.5%,x,-4
Cc1cccc(-c2nnc(SCC(=O)O)n2Cc2ccccc2)c1,-3.0,5,-2%,-1%,x,4%,-7
CCCN1CCC(NC(=O)CCc2nnc(Cc3cc(OC)ccc3OC)o2)CC1,-1.5,-17,4%,15%,x,11%,-7
COc1ccc(Cn2nnnc2CN2CCC(O)(c3ccccc3F)CC2)cc1,-0.7,-12,11%[15.4 µM],2%,x,-1%,-7
CCC1CCCCN1CC(O)Cn1c2ccccc2n2c(=O)cc(C)c(C#N)c12 (stereo unspecified),2.1,2,u,6%,28µM*,21%,-21
CNC(=O)c1cn(-c2ccccc2)c(=O)c2ccccc12,-3.4,11,-14%,7%,-29%,16%,-10
Cc1nc2nc(-c3ccc(F)cc3)cn2nc1C,7.6,11,u,-4%,5.2%,9%,-18
COC(=O)C(C)Oc1ccc(Oc2nc(Cl)ccc2Cl)cc1 (stereo unspecified),2.1,-13,-8%,-10%,0.4%,9%,6
O=C(c1cc2ccccc2oc1=O)N(Cc1cccs1)C1CCS(=O)(=O)C1 (stereo unspecified),-1.5,-2,5%,-1%,-14%,10%,17
COc1cc(NS(=O)(=O)c2ccc(-c3ccc(=O)[nH]n3)o2)cc(OC)c1OC,0.0,u,23%,3%,-2.8%,5%,-9
COc1ccc(/C=N/NC(=O)CN(C)C(=O)OCc2ccccc2)cc1OC,-3.8,4,30%[15.4 µM],-9%,30%,4%,-5
C/C(Nc1ccc(Cl)cc1)=C1/CCOC1=O,x,x,-16%,6%,2.0%,x,-1
CCc1ccc(CSc2nccn2-c2ccccc2)cc1,3.5,x,-1%,-1%[15.4 µM],-1.6%,-4%,-18
Cc1ccc2c(c1)[nH]c1c(=O)n(Cc3ccccn3)cnc12,1.9,-8,u,8%,32µM*,-1%,1
O=C(COc1cc2oc(=O)c3c(c2cc1Cl)CCCC3)NCC1CCC(C(=O)O)CC1 (stereo unspecified),x,-27,-11%,-27%,3.7%,14%,-2
O=C(COc1ccccc1[N+](=O)[O-])Nc1cccc(Cl)c1N1CCOCC1,x,-16,-49%[inhibitor],u,0.7%,9%,-20
O=C(NCC(c1ccc(F)cc1)N1CCOCC1)c1ccc(C(=O)c2ccccc2)cc1 (stereo unspecified),-3.5,-5,32%[15.4 µM],-8%,x,4%,-8
CCOc1ccc2nc(N3CCC(C(=O)NCCCN4CCOCC4)CC3)sc2c1,-1.4,11,9%[15.4 µM],-2%,x,4%,-3
CCCN1CCc2c(sc3nc(SC)n(-c4ccccc4)c(=O)c23)C1,16,8,20%[15.4 µM],-2%,x,-11%,0
Cc1ccc(OC(=O)C(C)c2cccc(C(=O)c3ccccc3)c2)cc1 (stereo unspecified),1.3,-9,-27%,-8%,0.1%,1%,-7
O=C(Cc1cc(=O)[nH]c(=O)[nH]1)NCCN1CCOCC1,-15,24,27%,9%,-4.0%,1%,-1
CC(C)CN(C(=O)c1cccs1)C1CCS(=O)(=O)C1 (stereo unspecified),x,3,2%[15.4 µM],14%,x,x,-3
# (list continues)
SMILES,Menin-MLL FL inh,TRPV1 PAM,gsp ag,gsp antagonist,ClpP mod,Sfp PPTase inh,D2 potentiator
CCOc1cccc2sc(=NC(=O)CCS(=O)(=O)c3ccccc3)n(CC)c12,11,-7,u,22%,-3.8%,1%,-15
CCCOC1(NC(=O)c2ccccc2)C(C)=CC(=O)C=C1C,2.3,2,-17%,7%,-0.2%,56µM*,3
Cc1ccc(S(=O)(=O)N2CCCCC2)cc1NC(=O)C1=NN(c2ccccc2)C(=O)CC1,x,-12,10%,u,-15%,x,-12
COc1ccc(C(=O)Nc2nc(N)n(-c3ccccc3)n2)cc1OC,4.7,-2,-6%,-4%,0.3%,-3%,2
Cc1noc(C)c1COC(=O)/C=C/c1ccccc1Cl,0.9,-8,4%[15.4 µM],-30%,x,-18%,-10
CC(=O)Nc1c(O)nc(SCC(=O)Nc2c(C)cccc2C)[nH]c1=O,-0.6,7,-37%[inhibitor],5%,0.4%,79µM*,-7
CNc1ccccc1C(=O)OC(C)C(=O)Nc1ccc(S(=O)(=O)N2CCCC2)cc1 (stereo unspecified),x,12,-33%[inhibitor],-12%,28µM*,-3%,1
CCCCCCCCNC(=O)c1cnsn1,-3.5,-24,6%,2%,x,12%,-4
COC(=O)c1sc(NC(=O)c2ccc(C)o2)nc1C,3.2,-24,-13%,2%,-6.7%,12%,3
CCCN1CCN(C(=O)Nc2ccc(OCC)cc2)CC1,-0.3,6,-19%,25%,-0.1%,17%,-2
COc1ccccc1N1CCN(S(=O)(=O)c2cc(-c3cc(C)no3)ccc2C(C)C)CC1,-0.9,8,u,-3%,-4.2%,5%,-8
O=C(O)C(c1ccccc1)C1(O)CCCCC1 (stereo unspecified),3.5,-11,3%,9%,-0.8%,16%,-1
CCOc1cc2[nH]c(=S)n(CCCCC(=O)NCc3ccco3)c(=O)c2cc1OCC,4.7,6,u,24%,-2.2%,-7%,-6
CCCc1c(C(=O)N/N=C/c2ccccc2OCc2ccc(F)cc2)nnn1-c1nonc1N,-1.3,6,12%,4%,3.7%,9%,-29
CC(C)CN(C(=O)Cn1ccccc1=O)C1CCS(=O)(=O)C1 (stereo unspecified),x,-10,28%,4%,-2.3%,x,-1
Cc1ccc2oc(=O)n(CC(=O)c3ccc(F)cc3)c2c1,1.6,x,-18%[15.4 µM],1%,1.0%,5%,6
COC(=O)c1cc(S(=O)(=O)N2CCC(C(N)=O)CC2)oc1C,5.4,-5,-51%[inhibitor],15%,1.4%,14%,-6
O=C(c1cc(-c2ccco2)on1)N1CCCc2ccccc21,7.3,9,2%,-1%,-1.6%,-5%,-8
O=C(Nc1ccccc1N1CCN(c2ccccc2)CC1)C1CCCCC1,1.9,-3,2%,2%,0.3%,-1%,-7
CCOc1ncccc1C(=O)N=C1SCCN1C(=O)c1cccnc1OCC,-3.2,13,-6%[15.4 µM],12%,1.1%,8%,-5
CCOC(=O)c1ccc(N2CN(C3CCCCC3)CNC2=S)cc1,2.4,1,-23%,12%,1.8%,17%,-19
Cn1ccc(NC(=O)Nc2cccc(C(F)(F)F)c2)n1,3.8,-27,u,2%,x,24%,-4
Cc1ccc(S(=O)(=O)C2(C(=O)N3CCN(c4ccccc4F)CC3)CC2)cc1,0.6,-18,-1%,4%,x,16%,-9
CC1CN(C(c2cccs2)c2sc3ncnn3c2O)CC(C)O1 (stereo unspecified),0.1,8,-60%[inhibitor],2%,-1.6%,18%,-3
N=C1S/C(=C\c2ccco2)C(=O)N1c1nccs1,u,-11,-3%,-19%,0.1%,u,-12
# (list continues)
SMILES,Menin-MLL FL inh,TRPV1 PAM,gsp ag,gsp antagonist,ClpP mod,Sfp PPTase inh,D2 potentiator
CC(C)(C)C(=O)/C=C/c1ccc(Oc2ccccc2)cc1,-2.2,-17,4%,6%,0.9%,4%,12
c1ccc(-c2ccc(C3CCCN3)cc2)cc1 (stereo unspecified),2.8,-20,-22%,11%,-6.0%,9%,-20
CS(=O)(=O)Nc1nc2n(n1)C(c1ccc(F)cc1)CC(c1ccccc1)N2 (stereo unspecified),-2.3,-7,0%,-13%,-3.8%,17%,-2
COc1ccc(CNC(=O)CN(Cc2ccc(OC)cc2)C(=O)c2csnn2)cc1,-4.0,-19,21%,-2%,0.1%,-5%,20
Cc1ccc(C)c(N2CCN(C(=O)Cn3cccc3)CC2)c1,4.3,-9,18%,-14%,0.1%,2%,-12
O=C(COC(=O)c1ccc(S(=O)(=O)N2CCCCC2)cc1)NCc1ccccc1,x,x,-2%[15.4 µM],-2%,-0.1%,x,-25
Cc1ccccc1OCC(=O)N/N=C/c1ccc(Sc2nc3ccccc3s2)o1,-4.5,5,5%,-12%,-6.8%,10%,18
CC1(C)C2CCC1(CS(=O)(=O)N1CCOCC1)C(=O)C2 (stereo unspecified),-0.8,14,-9%,7%,0.3%,10%,-17
O=C(c1ccc(Cn2cc(Br)cn2)cc1)N1N=C(C(F)F)CC1(O)C(F)F (stereo unspecified),-0.6,-3,10%,-5%,1.0%,17%,-22
O=C(c1cc2nc(-c3ccccc3)cc(-c3ccccc3)n2n1)N1CCCC1,6.4,-4,-5%,u,x,u,5
O=C1OCC/C1=C\c1ccc(O)cc1,-0.7,1,6%,1%,-4.6%,16%,-2
O=C(OCC(=O)N1CCN(S(=O)(=O)c2ccc(Cl)cc2)CC1)C1CC1,x,-14,-1%,9%,2.2%,x,-4
CC(=O)Nc1cccc(N/C(N)=N/c2nc(C)cc(C)n2)c1,0.0,-4,12%,10%,-3.4%,3%,-4
